High-throughput results: PubChem BioAssay, several laboratories
GALR2 ag: activates the human galanin receptor 2 | O43603 | GALR2-expressing cells, agonist activation read-out | activation, %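 (tested at 5 µM)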 | hit rate 0.48% among 140,000;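 active means above mean plus 3 SD of all compounds, about 5% in these data, not always enough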;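 further: 0% = vehicle buffer wells and 100% = reference agonist at full effect; tested in CHO reporter cells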
Target sequence (O43603 whole entry, looked up): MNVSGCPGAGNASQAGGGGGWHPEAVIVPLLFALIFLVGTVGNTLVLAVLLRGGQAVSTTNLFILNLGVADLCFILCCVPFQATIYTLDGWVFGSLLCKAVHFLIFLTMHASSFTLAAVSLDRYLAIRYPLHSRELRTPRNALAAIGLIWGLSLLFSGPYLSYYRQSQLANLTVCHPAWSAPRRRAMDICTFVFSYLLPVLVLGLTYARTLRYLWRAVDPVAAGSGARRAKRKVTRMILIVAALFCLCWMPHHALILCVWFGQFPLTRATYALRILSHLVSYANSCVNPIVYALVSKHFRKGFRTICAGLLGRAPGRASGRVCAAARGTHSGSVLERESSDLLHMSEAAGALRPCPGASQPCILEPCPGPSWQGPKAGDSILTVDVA
HSV replic up: HSV replication enhancement | HSV replication augmentation in cells, fold increase | maximum fold increase | hit rate 0.005% among 220,000 | AID 1956;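 active means peak rise of 1.5-fold or more in the series; inconclusive means self-fluorescent or not available for retest; tested in PC3 cells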;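 further: first round at 10 µM; read as green reporter fluorescence; hits show the peak of a series up to 25 µM; 1 = signal of infected wells without compound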
PKD1 inh: inhibitors of human PKD1 kinase; PKD1 kinase fluorescence polarization assay; hit rate 0.056% among 200,000; AID 797; inhibition, %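 (about 10 µM by stock and volumes)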;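 active means inhibition of 50% or more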;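 further: controls were vehicle for no effect and a reference inhibitor for full effect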
RGS16-Gao HTS: regulators of human RGS16-Galphao interaction; O15492+P09471; bead-based flow cytometry RGS16-Galphao binding, fluorescence; actives lie on both sides; binding response (% of control), % at 10 µM; hit rate 0.38% among 220,000; AID 1441;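 active means below 25% or above 175%, edge rows of some plates excepted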;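 further: Galphao activated by GDP with aluminum fluoride before binding; 100% = wells without compound and 0% = beads without RGS; some results beyond the cut were filed as inactive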
Target sequence (O15492 whole entry, looked up): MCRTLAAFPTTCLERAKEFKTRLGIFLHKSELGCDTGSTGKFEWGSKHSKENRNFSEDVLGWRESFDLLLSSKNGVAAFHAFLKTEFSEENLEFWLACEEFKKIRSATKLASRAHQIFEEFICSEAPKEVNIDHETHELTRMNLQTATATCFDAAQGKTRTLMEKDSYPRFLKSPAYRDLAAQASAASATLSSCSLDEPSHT
Target sequence (P09471 whole entry, looked up): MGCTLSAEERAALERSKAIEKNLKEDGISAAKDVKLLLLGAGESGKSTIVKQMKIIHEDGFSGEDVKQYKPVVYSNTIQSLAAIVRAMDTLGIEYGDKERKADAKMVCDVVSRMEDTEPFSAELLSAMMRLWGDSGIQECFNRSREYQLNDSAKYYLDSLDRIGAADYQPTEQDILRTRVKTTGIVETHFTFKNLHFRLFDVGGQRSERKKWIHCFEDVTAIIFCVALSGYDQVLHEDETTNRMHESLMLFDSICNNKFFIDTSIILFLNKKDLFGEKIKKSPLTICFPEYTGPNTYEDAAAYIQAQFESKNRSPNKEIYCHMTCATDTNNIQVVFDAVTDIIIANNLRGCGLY
Insulin prom inh: TRM-6 insulin promoter activity inhibition; hit rate 0.9% among 130,000; TRM-6 cells (human fetal islet line), insulin promoter-eGFP reporter, imaging; reporter expression induced with tamoxifen; AID 1273; inhibition, % at 2 µM;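 active means inhibition above the mean plus 3 SD, with well images judged a real hit on visual review, cut at about 60% in these data, passing the limit was not always enough; inconclusive means inhibition over the cutoff but images rejected on review; inactive means inhibition not above the cutoff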
Insulin prom inh cell count: also measured in Insulin prom inh; calls as there; normalized cell count, %; measured here: cell count, toxicity; reference of the scale not given here;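 cells exposed to compound for 48 h; stained nuclei by imaging scaled within each plate; lower means fewer cells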
HSV replic up primary fold: recorded beside HSV replic up, whose call it bears; fold increase; compound at 10 µM; measured here: primary screen fold increase 10 uM; tested in PC3 cells;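 GFP signal in the first replicate; 1 = infected wells without compound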
An asterisk follows results filed as active; i = inactive; ? = inconclusive; . = no result given.

Keys: A = GALR2 ag; B = HSV replic up; C = HSV replic up primary fold; D = PKD1 inh; E = RGS16-Gao HTS; F = Insulin prom inh; G = Insulin prom inh cell count
CCOC(=O)N[C@H](Cc1c[nH]c2ccccc12)C(=O)NC1CC1
  A = .; B = i; C = 0.99; D = .; E = 104; F = .; G = .

O=C(CCC(=O)OCC(=O)c1ccc(Cl)cc1Cl)Nc1cccc2cccnc12
  A = -2.6; B = i; C = 1.2; D = -1; E = 93; F = -38; G = 82

COc1cccc(/C=C/C(=O)OCC(=O)NCCC2=CCCCC2)c1
  A = .; B = i; C = 0.96; D = -6; E = 100; F = -14; G = 88

NS(=O)(=O)c1ccc(CNC(=S)Nc2ccc(F)c(Cl)c2)cc1
  A = .; B = i; C = 0.88; D = 1; E = 105; F = .; G = .

O=c1c(Cc2ccc(F)cc2)c(O)ccn1CC1CCCO1 (centres undefined)
  A = .; B = i; C = 0.92; D = -4; E = 103; F = .; G = .

Cc1cc(/C=C(\C#N)C(=O)NCCc2c[nH]c3ccccc23)c(C)n1C
  A = 0.1; B = i; C = 0.96; D = -7; E = 99; F = -3; G = 102

CC(CCc1ccccc1)NC(=O)CNC(=O)COc1ccccc1 (centres undefined)
  A = .; B = i; C = 1; D = -4; E = 102; F = -13; G = 87

COc1cc(S(=O)(=O)Nc2cc(C)cc(C)c2)ccc1F
  A = 0.3; B = i; C = 0.89; D = 5; E = 92; F = -6; G = 93

C(=N\Nc1nc2ccccc2s1)/c1cccs1
  A = -4.6; B = i; C = 0.75; D = -4; E = 83; F = .; G = .

N#CCSc1nnc(Cc2cccs2)n1C1CCCCC1
  A = -0.7; B = i; C = 0.89; D = 5; E = 102; F = .; G = .

Cc1cc(C(=O)COC(=O)CNC(=O)c2ccc(Cl)c(Cl)c2)c(C)n1Cc1ccco1
  A = -1.8; B = i; C = 0.94; D = -8; E = 99; F = .; G = .

BrC(=C\c1ccccc1)/C=N/N1CCN(Cc2ccccc2)CC1
  A = -3.1; B = i; C = 0.92; D = 0; E = 109; F = -38; G = 111

CCCC(=O)NC(=S)Nc1ccc(NC(=O)C(C)C)c(OC)c1
  A = 0.3; B = i; C = 1.1; D = 2; E = 110; F = .; G = .

CCOC(=O)N1CCC(NC(=O)Cn2cccc2C(=O)c2ccccc2)CC1
  A = -1.4; B = i; C = 1; D = -1; E = 96; F = .; G = .

COc1c(C)cc(Br)cc1C(=O)Nc1ccc(Cc2ccncc2)cc1
  A = .; B = i; C = 0.9; D = 2; E = 96; F = .; G = .

CC1(C)Cc2ccccc2-c2nnc(SCC(=O)N3CCc4ccccc43)n21
  A = -3.8; B = i; C = 0.95; D = 8; E = 102; F = -57; G = 80

CCCNC(=O)c1nn2cc(Br)cnc2c1Br
  A = .; B = i; C = 0.91; D = -1; E = 97; F = .; G = .

O=[N+]([O-])c1ccc(S(=O)(=O)N2CCN=C2SCc2cccnc2)cc1
  A = .; B = i; C = 0.96; D = -5; E = 103; F = 7; G = 114

O=C(Cc1ccccc1)Nc1c(C(=O)N2CCCCCC2)cnn1-c1ccccc1
  A = -3.1; B = i; C = 0.99; D = -8; E = 105; F = 7; G = 107

C/C(CCN1CCCCc2nc(C)c(C)cc21)=N\O[C@@H](C)c1cn([C@H](CO)Cc2ccccc2)nn1
  A = -0.1; B = i; C = 0.99; D = -12; E = 102; F = -25; G = 97

C#CCOCCOCCOCCNc1nc(N2CCN(C(=O)C([C@@H](C)CC)n3cc(C(N)CO)nn3)CC2)nc(N2CCN(C(=O)[C@H](CCC(=O)O)n3cc(C(N)[C@H](C)CC)nn3)CC2)n1 (some centres undefined)
  A = .; B = i; C = 0.99; D = .; E = 107; F = .; G = .

Cc1ccccc1/C=C\c1nc2ccccc2c(=O)n1Cc1ccccc1
  A = -1.2; B = i; C = 1.1; D = 2; E = 99; F = -36; G = 36

O=C(O)CCN1C(=O)C2C3C=CC(C3)C2C1=O (centres undefined)
  A = -0.8; B = i; C = 1; D = -5; E = 97; F = .; G = .

CC(C)Cn1c2c(c(O)c(C(=O)Nc3nccs3)c1=O)CCCC2
  A = -2.5; B = .; C = .; D = -1; E = 130; F = -29; G = 166

CCCc1cc(=O)n2[nH]c(-c3cc(OC)c(OC)c(OC)c3)nc2n1
  A = -0.8; B = i; C = 0.94; D = -6; E = 101; F = -100; G = 169

Later entries
Keys: A = GALR2 ag; B = HSV replic up; C = HSV replic up primary fold; D = PKD1 inh; E = RGS16-Gao HTS; F = Insulin prom inh; G = Insulin prom inh cell count
CCOC(=O)n1c(=O)n(Cc2c(Cl)cccc2Cl)c2ccccc21
  A = -4.4; B = i; C = 0.91; D = 16; E = 107; F = -23; G = 21

CCOC(=O)c1c(C)n(C)c2cc(Br)c(C)cc12
  A = 0.4; B = i; C = 0.88; D = -1; E = 101; F = 27; G = 70

O=S(=O)(NC1CC1)c1ccc(S(=O)(=O)N2CCN3CCCC3C2)cc1 (centres undefined)
  A = -1.9; B = i; C = 1.1; D = -2; E = 102; F = -64; G = 101

COc1ccc(Nc2ccnc(Nc3ccc(OC)cc3)n2)cc1
  A = -0.9; B = i; C = 0.7; D = 29; E = 99; F = 28; G = 141

COCCSc1ccccc1C(=O)Nc1cc(C)ccn1
  A = -0.8; B = i; C = 1; D = -10; E = 54; F = 11; G = 97

O=C(O)CC(C(=O)NC1CCCCC1)C1CCCO1 (centres undefined)
  A = -1.5; B = i; C = 0.88; D = -3; E = 100; F = -21; G = 138

Cc1cc2nc(C3CCN(C(=S)NCC(C)C)CC3)[nH]c2cc1C
  A = -0.5; B = i; C = 0.98; D = -11; E = 101; F = .; G = .

c1ccc(CCCCNCC2COc3ccccc3O2)cc1 (centres undefined)
  A = .; B = i; C = 0.98; D = 3; E = 99; F = .; G = .

O=S(=O)(NCCOc1ccccc1Cl)c1ccc2oc3ccccc3c2c1
  A = 0.2; B = .; C = .; D = 4; E = .; F = 25; G = 147

CN1C(=O)C(O)(CC(=O)c2cccnc2)c2ccccc21 (centres undefined)
  A = 2.8; B = i; C = 1.2; D = -8; E = 101; F = 29; G = 156

COc1cc2[nH]c(=O)n(CCCC(=O)NCCc3ccccc3)c(=O)c2cc1OC
  A = -1.3; B = .; C = .; D = -15; E = 103; F = .; G = .

CCCCn1c(C(C)NC(=O)COC)nc2ccccc21 (centres undefined)
  A = 0.7; B = i; C = 0.92; D = -18; E = 102; F = 16; G = 88

COc1ccc(C(=O)Nc2cc3c(cc2OC)CCCC3)cc1Br
  A = -3.3; B = .; C = .; D = -7; E = 99; F = -3; G = 87

CCn1cc(C(=O)OCC(=O)Nc2c(C)cccc2C)c(=O)c2ccc(C)nc21
  A = .; B = i; C = 0.94; D = -2; E = 103; F = -6; G = 98

O=C(N/N=C/C=C/c1cccc([N+](=O)[O-])c1)C(O)c1ccccc1 (centres undefined)
  A = .; B = i; C = 0.92; D = -4; E = 100; F = .; G = .

COC(=O)c1c(NC(=O)COC(=O)Cn2cnc3ccccc32)sc(C)c1C
  A = -1.2; B = i; C = 0.99; D = 13; E = 63; F = .; G = .

CCCC(=O)C1=C(O)C(C(=O)OC)C(C)(C)CC1=Nc1ccc(Br)cc1 (centres undefined)
  A = .; B = i; C = 1.2; D = .; E = 101; F = .; G = .

COC(=O)c1c(NC(=O)CC2Nc3ccccc3NC2=O)sc(C)c1C (centres undefined)
  A = -0.5; B = i; C = 0.59; D = 0; E = 92; F = -27; G = 126

CCOC(=O)c1c(NC(=O)CSc2nnc(-c3ccccc3)o2)sc(C(C)=O)c1C
  A = -1.4; B = i; C = 0.9; D = -5; E = 99; F = -36; G = 141

COc1ccc2nc3c(cc2c1)c(NC(=O)C1CCCO1)nn3CC(C)C (centres undefined)
  A = 2.6; B = i; C = 0.85; D = 1; E = 95; F = 25; G = 174

CCOc1cc(CNc2ccccc2)cc(Br)c1OCC(=O)NC(C)(C)C
  A = 0.0; B = i; C = 0.96; D = 11; E = 104; F = .; G = .

O=C1NCCN/C1=C\C(=O)c1ccccc1
  A = -2.2; B = i; C = 0.95; D = 3; E = 97; F = 13; G = 83

Cc1ccc(C(=O)Cn2nnc(-c3ccccc3-n3cnnn3)n2)cc1
  A = -1.2; B = i; C = 0.86; D = 3; E = 99; F = .; G = .

COc1cc2c(cc1OC)CN(Cc1ccc(OC)c(C)c1OC)CC2
  A = -0.9; B = i; C = 0.9; D = -15; E = 103; F = .; G = .

O=C(N1CCNCC1)N1CCOCC1
  A = -0.4; B = .; C = .; D = -4; E = 108; F = 7; G = 98

(further entries)
Keys: A = GALR2 ag; B = HSV replic up; C = HSV replic up primary fold; D = PKD1 inh; E = RGS16-Gao HTS; F = Insulin prom inh; G = Insulin prom inh cell count
CC1=C(C(=O)OCC2CCCO2)C(c2ccccc2OC(C)C)C2=C(CC(c3ccco3)CC2=O)N1 (centres undefined)
  A = 6.7; B = i; C = 0.99; D = -5; E = 96; F = -140; G = 96

CCC(C)n1c(=S)[nH]c2ccccc2c1=O (centres undefined)
  A = .; B = i; C = 0.73; D = -1; E = 102; F = .; G = .

Cc1ccc(C2CC(c3cccs3)=NN2C(=O)CSC2=NN3CCCC(=O)N=C3S2)cc1 (centres undefined)
  A = -1.0; B = i; C = 0.87; D = -7; E = 100; F = .; G = .

Cc1ccc(S(=O)(=O)CCC(=O)OCc2ccccc2F)cc1
  A = .; B = i; C = 0.97; D = -2; E = 104; F = .; G = .

Cc1nc2nc(-c3ccc(Cl)cc3)[nH]n2c(=O)c1C
  A = -0.3; B = i; C = 1; D = 2; E = 106; F = -44; G = 79

CN(C)c1ccc(/C=N/NC(=O)CN(c2ccccc2Cl)S(C)(=O)=O)cc1Br
  A = 0.0; B = i; C = 0.91; D = 4; E = 104; F = -66; G = 75

Cc1ccc(NC(=O)CSc2nnc(NC(=O)c3ccc(S(=O)(=O)N4CCOCC4)cc3)s2)cc1
  A = 0.1; B = i; C = 0.92; D = -2; E = 107; F = -36; G = 75

Cc1cccc(-n2c(CNC(=O)COc3ccccc3)nnc2SCC(=O)Nc2nccs2)c1
  A = -1.3; B = .; C = .; D = -5; E = 55; F = 33; G = 84

O=C(CSc1nnnn1Cc1ccccc1)NC1CCCCC1
  A = .; B = i; C = 0.96; D = 3; E = 103; F = .; G = .

O=C(O)c1cnc(-c2ccccc2)nc1Sc1ccccc1Cl
  A = -1.1; B = i; C = 1.1; D = -11; E = 104; F = 25; G = 112

Cc1cc2oc3c(c(=O)c2cc1C)C(c1cccc(Br)c1)N(Cc1ccco1)C3=O (centres undefined)
  A = -1.3; B = ?; C = .; D = 2; E = 101; F = 29; G = 140

CCc1ccc(C2NC(=S)NC3=C2C(=O)CCC3)cc1 (centres undefined)
  A = 0.9; B = i; C = 0.86; D = -6; E = 99; F = .; G = .

O=c1cc(-c2ccccc2)nc(SCc2ccc(F)cc2)[nH]1
  A = -2.2; B = .; C = .; D = -5; E = 102; F = 0; G = 100

CCn1c2ccccc2c2cc(NC(=O)CSc3nnc(-c4ccc(OC)cc4)n3N)ccc21
  A = 5.2*; B = i; C = 0.63; D = -2; E = 100; F = 3; G = 90

CC(NC(=O)COC(=O)CCc1nc2ccccc2c(=O)[nH]1)c1ccccc1 (centres undefined)
  A = .; B = i; C = 0.89; D = -6; E = 105; F = 17; G = 98

C=CCn1c(COc2ccccc2C)nnc1SCC(=O)O
  A = -1.2; B = i; C = 0.99; D = -5; E = 99; F = 30; G = 113

CCn1c(SCC(=O)N/N=C/c2ccc(C)o2)nnc1-c1ccc(C(C)(C)C)cc1
  A = -1.0; B = i; C = 0.97; D = 7; E = 97; F = 27; G = 105

CC[n+]1c(/C=C2\C=C(C)CC(C)(C)C2)sc2ccccc21
  A = -2.6; B = i; C = 0.94; D = -7; E = 91; F = .; G = .

CCC1(C)CC(C(CC(=O)O)c2ccc(C)cc2)CCO1 (centres undefined)
  A = -2.5; B = i; C = 0.86; D = 2; E = 107; F = -3; G = 126
